Six1-Eya2 inh = blocks human Six1 binding to Eya2; activity change, % (no concentration beside the values); Q15475+O00167; 0.56% of 360,000 active; AlphaScreen GST-Six1/His-Eya2 binding, biochemical; active compounds read low; control for the full effect not named in the record; in the data active = activity change below about -65%; inconclusive = about -30% to -65%; inactive = above about -30%; note: % is set by controls: 0 for no effect and ±100 for the full control effect
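Homogeneous AlphaScreen proximity assay pairing GST-Six1 with His-tagged Eya2 (added as 5X mix: 250 nM and 500 nM) in 50 mM Tris pH 8.0, 300 mM NaCl, 1 mM TCEP. Glutathione donor and nickel acceptor beads; 1 h, 37 °C, dark.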
D2 agonist = agonists of human D2 dopamine receptor (beta-arrestin) | DiscoveRx PathHunter D2 beta-arrestin, luminescence, 90 min; 100% = 57 uM dopamine signal | activation, % (test concentration not listed) | 0.084% of 360,000 active; in the data active = activation above about 40%; inconclusive = about 15% to 40%; inactive = below about 15%; note: compound concentration not given in the record; the text of the record calls up to 30% inactive
Target sequence (P14416 whole entry, looked up): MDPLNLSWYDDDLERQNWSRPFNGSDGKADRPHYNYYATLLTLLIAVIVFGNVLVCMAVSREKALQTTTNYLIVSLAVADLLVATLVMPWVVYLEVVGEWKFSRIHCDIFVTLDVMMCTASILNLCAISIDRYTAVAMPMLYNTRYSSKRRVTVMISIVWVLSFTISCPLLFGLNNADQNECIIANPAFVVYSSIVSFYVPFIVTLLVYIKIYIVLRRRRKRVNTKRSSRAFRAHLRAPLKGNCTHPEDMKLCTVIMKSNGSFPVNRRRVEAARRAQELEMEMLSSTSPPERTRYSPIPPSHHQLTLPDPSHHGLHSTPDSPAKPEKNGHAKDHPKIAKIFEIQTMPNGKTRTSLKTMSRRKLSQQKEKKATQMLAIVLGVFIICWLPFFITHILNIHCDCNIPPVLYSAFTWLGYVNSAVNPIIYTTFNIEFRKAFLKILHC
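Agonist mode: compounds alone added to overnight-plated D2 PathHunter cells for 90 min at 37 C, with 57 uM final dopamine (EC100) defining full response. Beta-arrestin recruitment detected by chemiluminescent reagent, read after 1 h at ambient temperature.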
PINK1 modulator = changes PINK1 expression; PINK1 immunofluorescence, high-content cytometry, 24 h; Potency, µM (series often up to 76.6 µM), for the others: at the highest dose activation (PINK1 increase), actives largely listed as activators; 0.2% of 410,000 active; active = well fitted activation curve with a large enough effect; inconclusive = small, poorly fitted or top-dose-only effect; inactive = flat fitted curve, though single readings scatter; cell line not stated here;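 note: potency is the fitted concentration of half-maximal effect; % of control where 0% means no effect; nearly all actives have a fitted effect of over 65% in size; a mitochondrial uncoupler was the plate control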
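A stable cell line was treated with compounds at 5 concentrations for 24 hours, with CCCP as control. PINK1 levels and mitochondrial localization were measured by immunofluorescence with mitochondrial, cell and nuclear markers after fixation, read by laser-scanning cytometry.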
D2 potentiator = human D2 receptor positive allosteric modulation. P14416. DiscoveRx D2 beta-arrestin cells, luminescence, 90 min; 100% = 57 uM dopamine signal. potentiation, % (no concentration beside the values). 0.23% of 360,000 active. AID 624464; active = potentiation of 50% or more; inconclusive = 30% to 50%; inactive = 30% or less;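 note: compound concentration not given in the record; tested on top of an EC20 dose of dopamine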
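PathHunter D2 cells, attached overnight at 37 deg C, received compound in DMSO plus dopamine at EC20 (50 nM final) for 90 min at 37 deg C. Beta-arrestin recruitment was read as luminescence after 1 h with detection reagent at ambient temperature.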
TRPML1 agonist = activates the human TRPML1 channel; Q9GZU1; AID 624414; 0.12% of 410,000 active; activation, % (concentration not given with the values); TRPML1-expressing cells, Ca2+ dye fluorescence, FDSS; host cell line not named in the record; reference of the full effect not given here; in the data active = activation above about 50%; inconclusive = about 30% to 50%; inactive = below about 30%; note: 0% is about no effect; the text of the record puts the active cut at 80%
Target sequence (Q9GZU1 whole entry, looked up): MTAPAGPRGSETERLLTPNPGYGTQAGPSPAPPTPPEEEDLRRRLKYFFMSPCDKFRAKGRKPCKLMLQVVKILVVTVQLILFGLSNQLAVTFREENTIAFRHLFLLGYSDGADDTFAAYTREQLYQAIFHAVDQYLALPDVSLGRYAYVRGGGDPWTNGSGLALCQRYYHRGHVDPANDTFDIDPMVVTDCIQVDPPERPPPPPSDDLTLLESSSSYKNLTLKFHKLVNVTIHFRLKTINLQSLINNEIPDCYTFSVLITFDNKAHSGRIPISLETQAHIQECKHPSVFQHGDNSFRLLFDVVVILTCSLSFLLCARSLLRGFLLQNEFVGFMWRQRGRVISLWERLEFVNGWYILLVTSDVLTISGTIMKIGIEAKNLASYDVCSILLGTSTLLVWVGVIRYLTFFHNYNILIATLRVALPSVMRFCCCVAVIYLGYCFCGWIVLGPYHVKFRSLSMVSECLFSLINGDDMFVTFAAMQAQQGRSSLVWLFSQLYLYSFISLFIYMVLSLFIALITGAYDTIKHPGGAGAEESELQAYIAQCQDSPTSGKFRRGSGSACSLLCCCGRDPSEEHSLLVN
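Kinetic FDSS Ca2+ read in Tet-induced TRPML1-DL cells (ABD Ca8 dye plus quencher, 45-90 min RT loading): baseline, then compound, then 110 s agonist window; EC80 agonist 54-4 at 4uM final added afterwards for a 110 s antagonist window.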
CtBP-E1A inh = blocks the CtBP interaction with E1A; 0.49% of 340,000 active; activity change, % (concentration not given with the values); AlphaScreen GST-E1A/His-CtBP binding, 1536-well; active compounds read low; control for the full effect not named in the record; AID 651724; in the data active means activity change below about -65%; inconclusive means about -30% to -65%; inactive means above about -30%; note: % is set by controls: 0 for no effect and ±100 for the full control effect
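AlphaScreen with 125 nM GST-E1A and 125 nM His-CtBP (5X stocks) in Tris pH 8.0, 300 mM NaCl, BSA, Tween 20, TCEP. Compounds preincubated 2 h at 37 deg C, then glutathione donor/nickel acceptor beads added for 1 h at 37 deg C in dark.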
* marks the source's active call; other numbers are inactive results; ? = inconclusive; · = no result given; & = joins results of further samples; [ ] = another dose, or the depositor's remark.

SMILES	Six1-Eya2 inh	D2 agonist	PINK1 modulator	D2 potentiator	TRPML1 agonist	CtBP-E1A inh
Cc1ccnc(NC(=O)c2ccc(OCC3CCCO3)cc2)c1 (stereo not given)	4	-6.8	5.0%	1	-0.2	2
N#Cc1cc2cc3c(cc2nc1N1CCCCC1)OCCO3	25	-6.5	-0.2%	13	0.5	33
CC(C)c1ccc(S(=O)(=O)N2CCN(C(C)C(=O)NC3CCCC3)CC2)cc1 (stereo not given)	6	-0.9	-0.6%	-4	-0.3	·
CC(C)(C)OC(=O)N(Cc1ccccc1)Cc1ccccc1OCc1ccc(NC(=O)C2CCC2)cc1	-10	-1.7	1.0%	·	-0.5	9
COc1ccccc1CN1C[C@@H]2C[C@@H](c3ccc(C)cc3)N3CCC[C@@]23C1=O	11	-1.2	2.8%	-7	2.6	0
COc1cccc(OCCCn2ccnc2)c1	5	-2.8	-1.0%	-3	0.4	-1
CN1C[C@@H]2C(c3ccc(Cl)nc3)C3(c4ccc(C#N)cc4)CC2(C3)[C@H]1c1ccccc1 (stereo not given in full)	-18	-2.9	0.4%	-6	-0.1	-9
COc1ccccc1N1CCN(S(=O)(=O)c2ccc(F)cc2)CC1	-4	-1.0	4.8%[38.3 µM]	-8	2.4	-17
Cc1[nH]c2ccccc2c1/C=N\NC(=O)Cn1nnc(-c2ccccc2)n1	7	5.1	7.2%	-6	0.4	·
Cc1ccc(C(=O)Nc2ccccc2N2CCCC2)cc1S(=O)(=O)N1CCOCC1	-16	-2.6	0.6%	-7	1.1	-8
CC(C)c1ccc(NC(=O)Nc2nc(C(N)COCc3ccccc3)cs2)cc1 (stereo not given)	-13	?	-1.3%	11	1.0	-11
O=S(=O)(Nc1cccc(S(=O)(=O)N2CCCCC2)c1)c1ccc(Cl)s1	-2	5.9	1.6%	-2	-1.0	-10
CCOC(=O)C1=C(COC(=O)/C=C/c2ccc(OC)c(OC)c2)NC(=O)NC1C (stereo not given)	0	4.3	?	13	0.6	-18
Cc1nn(CCC(N)=S)c2nc(-c3cccs3)cc(C(F)(F)F)c12	-12	-14	1.1%	-17	0.8	-10
O=C(c1ccc(Br)o1)N1CCN(c2ccccc2F)CC1	2	-0.5	-2.8%	-11	0.5	-1
CCC(C)NS(=O)(=O)c1ccc(NC(=O)c2cccs2)cc1 (stereo not given)	1	-0.9	6.7%	-9	-0.2	5
O=C(O)CCc1nc(-c2ccc(Cl)cc2)no1	3	0.2	1.3%	19	-1.5	2
COc1ccc(CCNC(=S)NC2CCN(Cc3ccccc3)CC2)cc1	2	-2.5	9.6%	-19	1.2	-6
COc1ccc(C(CNC(=O)c2[nH]c(C)c(C(C)=O)c2C)N2CCOCC2)cc1 (stereo not given)	2	-1.3	0.8%	1	-0.9	·
Cc1sc2nc(CN3CCCC3)nc(N3CCN(S(=O)(=O)c4ccccc4)CC3)c2c1C	1	-6.8	3.1%	-5	-0.5	-14
COc1cc(OC)cc(N(C(=O)CNC(=O)c2cccs2)C(C(=O)NCC2CCCO2)c2ccccc2)c1 (stereo not given)	2	-3.9	4.6%	25	-0.9	-1
COc1cc2c(cc1O)C(Cc1ccc(O)cc1)[N+](C)([O-])CC2 (stereo not given)	5	0.4	0.1%	-15	-0.1	7
Cc1cccc(C(=O)NCC(=O)N2CCCCCCC2)c1	7	-2.9	1.3%	1	0.1	·
Cc1occc1C(=O)NNC(=O)C1CCCCC1	-1	-4.2	0.1%	-7	-0.7	0
CN(C)/C=C(\C=O)c1ccc(Cl)cc1Cl	-2	-3.6	0.1%	2	-0.1	·
CN(C)CCCN(C(=O)c1cccs1)c1nc2cc3c(cc2s1)OCO3	7	-2.3	-0.5%	-14	0.4	11
O=C1CCCN1CCC1CCN(C(=S)Nc2ccc(F)cc2)CC1	-2	-1.6	4.1%	-6	-0.1	-7
CC(=O)N1C[C@H]2CON(C)[C@H]2C[C@H]1c1cccc(-c2ccccc2)c1	7	-2.1	1.3%	-7	0.8	6
CC(=O)Nc1ccc(NC(=O)C(C)Oc2ccc(C)nc2[N+](=O)[O-])cc1 (stereo not given)	3	-3.1	-0.1%	-25	-0.3	9
CCN(Cc1cccc(OC)c1)CC1CCCN(CCc2cccc(OC)c2)C1 (stereo not given)	-8	-1.2	14%	-1	0.4	-11
CC1(c2nnnn2Cc2ccccc2)CCC(=O)N1Cc1ccc(F)cc1 (stereo not given)	-7	·	1.4%	·	-0.4	5
CN1CCN(c2nc3c(c(=O)[nH]c(=O)n3C)n2CCCSc2ncccn2)CC1	0	1.8	-0.9%	-12	-0.8	7
Cc1ccc(NC(=O)C(=O)NCc2ccc(/C=C(/C#N)C(=O)NCc3cccnc3)o2)cc1C	2	1.2	19%	-5	-0.1	-2
Cc1c(Br)cc(C(=O)O)c(C)c1C	1	-3.4	1.3%	-2	-0.9	6
Cc1ccc(C)c(S(=O)(=O)N2CCN(C(=O)CCNS(=O)(=O)c3ccccc3)CC2)c1	2	2.9	-0.7%	-3	0.1	-1
COC(=O)[C@@]1(Cc2ccc(OC)cc2)[C@H]2c3cc(C(=O)N4CCCC4)n(Cc4ccsc4Br)c3C[C@H]2CN1C(=O)c1ccccc1	-13	·	2.0%	·	-0.2	-11
CC(NC(=O)c1ccc2c(c1)S(=O)(=O)N=C1CCCCCN12)c1ccc(S(N)(=O)=O)cc1 (stereo not given)	11	-4.3	0.9%	-2	0.4	-18
CSc1nncc(-c2ccccc2)n1	-8	-4.9	0.8%	-8	-0.4	3
CC(C)[C@H](NS(=O)(=O)c1ccccc1F)C(=O)OCC(=O)Nc1cccc(S(N)(=O)=O)c1	9	2.5	4.0%	0	-0.8	2
CCNC(=O)CN1C(=O)NC2(CCCc3cc(OC)ccc32)C1=O (stereo not given)	7	1.3	0.5%	6	-0.2	10
CC(C)CC1C(=O)N(Cc2cn(CC3CCCCC3)nn2)CCS(=O)(=O)N1Cc1ccc(-c2ccc(F)nc2)cc1 (stereo not given)	0	-2.1	2.3%	5	-0.1	1
O=c1[nH]nc(-c2cc(-c3ccccc3)nc3ccccc23)o1	-16	-11	1.5%	-10	-0.6	0
Cc1ccc(-c2noc(C3CCCN(S(=O)(=O)c4ccc5ccccc5c4)C3)n2)o1 (stereo not given)	-5	0.4	2.1%[38.3 µM]	-8	1.6	5
CC(C)S(=O)(=O)CC(=O)c1ccc(Cl)cc1	9	-0.5	-0.6%	-8	0.8	·
OCCCNc1ncnc2c1ncn2[C@H]1CN(Cc2ccncc2)C[C@@H](CO)O1	1	-1.5	0.7%	-1	0.9	3
Cc1ccc(N(Cc2cc3ccc(C)cc3[nH]c2=O)C(=O)c2ccco2)c(C)c1	-3	-5.1	2.2%	-16	-0.1	·
Nc1ccc(C(=O)Nc2cccc3ncccc23)cc1	-2	-3.8	0.5%	-3	0.4	-16
CCn1c(C)c(C)c2cc(C(=O)NCCCN3CCCCC3C)ccc21 (stereo not given)	-12	-4.9	-0.4%&-1.3%	-34	0.4&0.8	5
CN(CC(=O)Nc1ccc(N2CCOCC2)cc1)C(=O)c1cc(F)c(F)cc1Cl	1	-2.8	-1.4%	-7	-0.2	6
Cc1ccc(C2OCC3(CO)COC(c4ccc(C)cc4)N23)cc1 (stereo not given)	4	5.9	·	-4	1.2	6

Results in PINK1 modulator, for 2 of the compounds above:
Structure	PINK1 modulator
COc1ccc(CCNC(=S)NC2CCN(Cc3ccccc3)CC2)cc1	9.6%
Cc1nn(CCC(N)=S)c2nc(-c3cccs3)cc(C(F)(F)F)c12	1.1%

The results go on.
SMILES	Six1-Eya2 inh	D2 agonist	PINK1 modulator	D2 potentiator	TRPML1 agonist	CtBP-E1A inh
COc1ccc(N2C(=O)/C(=C/c3ccc([N+](=O)[O-])cc3)N=C2C)cc1	-2	8.3	5.4%	2	-0.1	·
O=C(O)CCC(=O)Nc1cc(C(F)(F)F)cc(C(F)(F)F)c1	8	-5.3	-0.7%	-19	-1.4	·
CC1(C(=O)NS(=O)(=O)Cc2ccccc2)CCN1C(=O)Cc1cc(F)ccc1F (stereo not given)	8	-5.6	0.5%	-1	-0.4	5
COc1cccc(S(=O)(=O)Nc2ccc3c(c2)[C@H]2C[C@H](CC(=O)N[C@@H](C)c4ccccc4)O[C@H](CO)[C@H]2O3)c1	0	-4.1	1.1%	2	0.3	2
COc1ccc(C2=NOC(COC(=O)c3ccc4ccccc4n3)C2)cc1 (stereo not given)	3	-1.0	0.3%	-5	1.4	0
Cc1nc(NC(N)=S)sc1C(=O)Nc1ccccc1	-5	-5.4	3.2%[38.3 µM]	-21	-0.1	-7
Cc1cc(C)c(C(=O)CSc2nnc(C)s2)c(C)c1	-3	3.4	-0.7%	-6	-0.4	8
CN1C(=O)/C(=C/c2cc(C(C)(C)C)c(O)c(C(C)(C)C)c2)NC1=S	-1	?	3.0%	52*	2.0	-2
O=C(O)C1CCCCC1C(=O)NCc1ccccc1 (stereo not given)	22	-1.8	17%[38.3 µM]	24	-0.4	34
Cc1ccc(N(C)C(=O)N2CCN(S(=O)(=O)c3c(C)cc(C)cc3C)CC2)cc1	-3	0.2	·	-12	0.2	-10
Cc1cc(C(=O)Cn2nc(C(=O)O)c3ccccc3c2=O)c(C)n1-c1cccc(C(F)(F)F)c1	2	0.7	1.3%	0	1.1	1
Cc1cccc2sc(N(CCN(C)C)C(=O)c3ccc4ccccc4c3)nc12	-22	-1.3	14%	-20	0.7	·
COc1ccc(CCN2C(=O)C(Oc3ccccc3)C2c2ccc3c(c2)OCO3)cc1 (stereo not given)	5	7.5	11%	-5	0.1	4
COc1ccccc1/C=N/NC(=O)c1cccc(NC(=O)c2ccccc2C)c1	-9	1.9	2.5%	-1	1.8	-11

Compounds shown so far that contain two or more sulfur atoms:
SMILES	Six1-Eya2 inh	D2 agonist	PINK1 modulator	D2 potentiator	TRPML1 agonist	CtBP-E1A inh
O=S(=O)(Nc1cccc(S(=O)(=O)N2CCCCC2)c1)c1ccc(Cl)s1	-2	5.9	1.6%	-2	-1.0	-10
Cc1nn(CCC(N)=S)c2nc(-c3cccs3)cc(C(F)(F)F)c12	-12	-14	1.1%	-17	0.8	-10
CCC(C)NS(=O)(=O)c1ccc(NC(=O)c2cccs2)cc1 (stereo not given)	1	-0.9	6.7%	-9	-0.2	5
Cc1sc2nc(CN3CCCC3)nc(N3CCN(S(=O)(=O)c4ccccc4)CC3)c2c1C	1	-6.8	3.1%	-5	-0.5	-14
CN(C)CCCN(C(=O)c1cccs1)c1nc2cc3c(cc2s1)OCO3	7	-2.3	-0.5%	-14	0.4	11
Cc1ccc(C)c(S(=O)(=O)N2CCN(C(=O)CCNS(=O)(=O)c3ccccc3)CC2)c1	2	2.9	-0.7%	-3	0.1	-1
CC(NC(=O)c1ccc2c(c1)S(=O)(=O)N=C1CCCCCN12)c1ccc(S(N)(=O)=O)cc1 (stereo not given)	11	-4.3	0.9%	-2	0.4	-18
CC(C)[C@H](NS(=O)(=O)c1ccccc1F)C(=O)OCC(=O)Nc1cccc(S(N)(=O)=O)c1	9	2.5	4.0%	0	-0.8	2
Cc1nc(NC(N)=S)sc1C(=O)Nc1ccccc1	-5	-5.4	3.2%[38.3 µM]	-21	-0.1	-7
Cc1cc(C)c(C(=O)CSc2nnc(C)s2)c(C)c1	-3	3.4	-0.7%	-6	-0.4	8
